From PubChem
LANA-H2A inh = blockers of LANA interaction with H2A/H2B – biochemical, FP readout, HTS, primary screen; Protein LANA1 (Human herpesvirus 8 type P (isolate GK18)), Q9QR71; cell-free LANA-H2A/H2B peptide, fluorescence polarization; inhibition, % (test concentration not listed); 0.6% of 320,000 active; AID 2629, 2010; in the data active means inhibition mostly above about 10%, no sharp cut-off; inactive means mostly below about 6.7%;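 further: stock transfer was 7.5 nL into about 10 µL; 0% = median of vehicle wells and 100% = median of positive control wells; one replicate is shown; the record names a cut of 25% in any replicate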
Target sequence (Q9QR71 whole entry, looked up): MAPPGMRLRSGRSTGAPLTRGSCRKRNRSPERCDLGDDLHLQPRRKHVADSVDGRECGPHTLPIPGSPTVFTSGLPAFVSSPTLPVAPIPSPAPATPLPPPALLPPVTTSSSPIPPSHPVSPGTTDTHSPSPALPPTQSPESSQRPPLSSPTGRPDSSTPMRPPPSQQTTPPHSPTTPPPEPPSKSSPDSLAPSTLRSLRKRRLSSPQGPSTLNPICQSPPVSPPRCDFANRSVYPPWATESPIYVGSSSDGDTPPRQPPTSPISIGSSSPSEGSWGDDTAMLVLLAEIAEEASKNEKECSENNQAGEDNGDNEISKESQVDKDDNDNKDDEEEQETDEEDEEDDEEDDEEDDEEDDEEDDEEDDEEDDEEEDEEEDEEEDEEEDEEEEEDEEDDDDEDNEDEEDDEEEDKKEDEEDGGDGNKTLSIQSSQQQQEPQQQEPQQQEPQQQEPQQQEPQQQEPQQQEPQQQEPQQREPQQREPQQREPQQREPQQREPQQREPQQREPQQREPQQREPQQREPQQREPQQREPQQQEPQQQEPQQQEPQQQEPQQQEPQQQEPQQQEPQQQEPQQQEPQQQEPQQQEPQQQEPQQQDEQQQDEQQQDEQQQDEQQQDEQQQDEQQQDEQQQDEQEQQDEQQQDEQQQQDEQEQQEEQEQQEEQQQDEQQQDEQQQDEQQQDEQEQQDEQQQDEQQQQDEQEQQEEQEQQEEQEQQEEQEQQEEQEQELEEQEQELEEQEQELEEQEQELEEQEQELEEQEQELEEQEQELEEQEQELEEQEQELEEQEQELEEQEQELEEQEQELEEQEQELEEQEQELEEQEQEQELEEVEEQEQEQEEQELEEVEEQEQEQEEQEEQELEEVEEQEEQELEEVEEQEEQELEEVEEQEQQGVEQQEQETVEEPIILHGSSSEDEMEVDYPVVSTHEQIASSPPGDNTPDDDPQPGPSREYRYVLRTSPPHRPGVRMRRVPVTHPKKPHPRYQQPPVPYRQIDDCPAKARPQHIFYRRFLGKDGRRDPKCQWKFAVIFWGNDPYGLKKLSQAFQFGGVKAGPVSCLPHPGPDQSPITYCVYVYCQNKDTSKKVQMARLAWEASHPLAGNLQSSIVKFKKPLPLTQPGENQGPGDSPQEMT
Beta2AR agonist = beta2AR agonists driving receptor internalization, primary screen, cell-based, FAP fluorogen, flow cytometry. Beta-2 adrenergic receptor (Homo sapiens), P07550. Am2.2-beta2AR cells; reference of the scale not given here. response, % (no concentration beside the values). 0.43% of 340,000 active;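 active means response above a set limit, near 3 SD of response in nonfluorescent compounds, cut at about 42% in these data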;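 further: stock transfer was 100 nL into about 11 µL; a reference agonist was the positive control; negative values mostly stem from fluorescent compounds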
HNF4A DNA FP = change in binding of human HNF4A to DNA, primary screen, biochemical, fluorescence polarization, FITC-DNA; 1 h; activity change, % at 10 µM; 0.3% of 360,000 active; in the data active means activity change above about 30%, passing the limit was not always enough;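 further: controls were the assay level and a saturating level of protein; the project sought stronger binding though the title names inhibitors; some compounds called inactive have numbers as strong as hits; positive values seem to mean higher polarization but the record does not say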
FGF22 binding = binders of human FGF22 protein, primary screen, FGF22 synaptogenesis inhibitor project, biophysical, thermal shift, single point; calls only at 9.99 µM; 1.5% of 340,000 active; AID 651658, 2012; recombinant FGF22 thermal shift, SYPRO orange fluorescence; percent of sucrose octasulfate shift, DMSO zero; Fibroblast growth factor 22 (Homo sapiens), Q9HCT0;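 active means melting point raised past a set limit in the mean and every replicate; three in four hits are not shown here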
Ecoli growth = E. coli growth inhibition, primary screen, OD600; OD600 absorbance (test concentration not listed); 0.21% of 330,000 active; AID 1053175, 2014; Escherichia coli growth, 23 h; active compounds read low;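 active means OD600 absorbance below the run mean of sample wells minus 3.6 SD, in any replicate, cut at about 0.56 in these data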;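 further: stock transfer was 300 nL into about 60 µL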
UCH37 inh = inhibitors of human UCH37 deubiquitinase, primary screen, biochemical, Ub-AMC cleavage, fluorescence; Ubiquitin carboxyl-terminal hydrolase isozyme L5 (Homo sapiens), Q9Y5K5; purified proteasome/UCH37; inhibition, % (concentration not given with the values); 0.33% of 330,000 active;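 active means mean of two replicates above 20%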;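 further: 0% = compound-free wells with enzyme and 100% = wells lacking proteasome; stock transfer was 100 nL into about 20 µL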
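Material: human UCH37 enzyme supplied as purified proteasome complex. Measure: % inhibition of Ub-AMC cleavage fluorescence. Medium: pH 7.4 Tris-HCl (50 mM) with ovalbumin, ATP-MgCl2, DTT. Times: 30 min preincubation with enzyme, 25 min cleavage at room temperature. Detection: AMC fluorescence intensity at 355/460 nm.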
ALR H2O2 inh = inhibitors of human ALR sulfhydryl oxidase, primary screen, biochemical, H2O2 detection, HRP-luminol luminescence, single point; FAD-linked sulfhydryl oxidase ALR (Homo sapiens), P55789; purified ALR, DTT oxidation; inhibition, % (no concentration beside the values); 3.8% of 290,000 active; AID 485317, 2010;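 active means mean and each replicate at 75% or more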;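 further: stock transfer was 7.5 nL into about 7.5 µL; 0% = neutral wells and 100% = wells with inactivated enzyme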
* = called active by the depositor; i = inactive; nt = not tested or not shown. An excerpt, so the mix of outcomes need not match the whole.

No.	SMILES	HNF4A DNA FP	Ecoli growth	UCH37 inh	LANA-H2A inh	ALR H2O2 inh	FGF22 binding	Beta2AR agonist
1	CC1C(=O)N2CCCc3cc(NC(=O)C(=O)NCc4cccnc4)cc1c32 (centres undefined)	0.7	0.67	5.0	-1.6	-4	i	-4
2	CC(=O)Oc1ccccc1C1=NN(C(=O)/C=C/c2ccccc2)C(c2ccccc2)C1 (centres undefined)	-0.7	0.76	0.9	-3.0	nt	nt	-1
3	CC1Cc2ccccc2N1C(=O)CCn1c(=O)sc2ccccc21 (centres undefined)	-2.6	0.74	0.2	-2.4	4	i	-8
4	Cc1ccccc1-c1nc(CN2CCC(C(=O)NCCCN3CC(C)CC(C)C3)CC2)c(C)o1 (centres undefined)	1.6	0.74	5.4	-2.9	-3	nt	29
5	CC(=O)Nn1c(COc2ccccc2C)nc2ccccc2c1=O	2.6	0.68	-0.1	3.3	nt	nt	1
6	COc1ccc(CN(C)C(=O)C2CCN(S(=O)(=O)c3cccs3)CC2)cc1F	0.4	0.72	-1.3	-4.6	nt	i	2
7	CCC1CCCCN1CCN1C(=O)C2C(C(=O)Nc3cccc(OC)c3)C3C=CC2(O3)C1C(=O)NC1CCCCC1 (centres undefined)	20	0.65	3.4	-2.9	-4	i	-4
8	C/C(=C\c1ccccc1)C(=O)Nc1ccc(Cl)cn1	1.2	0.65	2.9	-1.7	1	i	-8
9	Cc1cc(C)n(CC(O)COc2ccccc2)n1 (centres undefined)	5.4	0.71	3.1	-0.1	-9	nt	0
10	COc1cc(OC)cc(C(=O)Nc2nc(CC(=O)NCc3ccccc3OC)cs2)c1	-3.1	0.7	-2.8	9.8	nt	i	13
11	CCOc1ccccc1N1CN(C2CCCCC2)CNC1=S	1.9	0.62	2.5	5.7	nt	i	2
12	COc1cc(/C=C/c2nnc3c4ccccc4ncn23)cc(OC)c1OC	-0.9	0.71	-170	2.4	-8	i	11
13	O=C(NCC1CCCO1)c1cccc(NC(=O)c2ccc(Br)cc2)c1 (centres undefined)	0.3	0.66	2.0	0.9	-3	i	-2
14	CCOc1ccc(S(=O)(=O)Nc2cc(Cl)ccc2O)cc1	-1.1	0.68	2.0	-0.9	28	nt	-6
15	N#C/C(=C/c1ccc(OCc2ccc(C(=O)O)cc2)c(Br)c1)c1cccc(F)c1	-14	0.68	-9.8	-6.4	61	nt	4
16	O=C1/C(=C/c2cccs2)COc2ccccc21	2.4	0.6	4.6	nt	nt	i	9
17	CCN(Cc1ccncc1)Cc1ccc(OC)cc1OC	2.2	0.67	2.4	3.8	-1	i	-5
18	S=c1nc(COc2ccccc2)[nH]c2ccccc12	-3.3	nt	nt	0.9	18	i	i
19	COC(=O)CN1C(=O)C(C)=C(c2ccc(C)cc2)S1(=O)=O	-0.5	0.74	1.4	3.0	nt	i	-5
20	CC(C)OCCCNC(=S)N1CCC(C(=O)c2ccc3c(c2)OCCO3)CC1	0.9	0.66	5.0	-6.0	-40	i	-13
21	CN1CCN(Cc2cccc(Oc3ccccc3)c2)CC1	0.3	0.69	2.2	1.4	-6	i	-6
22	O=C(NC(Nc1nc2ccc([N+](=O)[O-])cc2s1)(C(F)(F)F)C(F)(F)F)c1ccccc1Cl	13	0.59	4.4	3.1	-2	i	13
23	CCS(=O)(=O)N1CCN(S(=O)(=O)c2ccc3ccccc3c2)CC1	0.1	0.71	5.1	-8.8	nt	i	2
24	CCCCn1c(N)c(N(CC)C(=O)C2COc3ccccc3O2)c(=O)[nH]c1=O (centres undefined)	0.4	0.65	-0.7	nt	nt	i	-2
25	CCOCCCNC(=S)Nc1ccc2nc(N3CCN(CC)CC3)cc(C)c2c1	0.4	0.68	-17	-0.8	-21	i	3

Reprinted from the part before: 2 entries, followed by the next part.
No.	SMILES	HNF4A DNA FP	Ecoli growth	UCH37 inh	LANA-H2A inh	ALR H2O2 inh	FGF22 binding	Beta2AR agonist
24	CCCCn1c(N)c(N(CC)C(=O)C2COc3ccccc3O2)c(=O)[nH]c1=O (centres undefined)	0.4	0.65	-0.7	nt	nt	i	-2
25	CCOCCCNC(=S)Nc1ccc2nc(N3CCN(CC)CC3)cc(C)c2c1	0.4	0.68	-17	-0.8	-21	i	3
26	Nc1nonc1-n1nnc(C(=O)N/N=C/c2ccc(OCc3ccccc3)cc2)c1CNc1ccccc1	-1.9	nt	nt	2.3	3	i	-6
27	Cc1cccc2cc(CN(CC3CCCO3)C(=O)c3ccco3)c3nnnn3c12 (centres undefined)	nt	0.71	4.5	-2.0	0	nt	nt
28	CCCCNC(=O)CNC(=S)N(Cc1cc(OC)c(OC)c(OC)c1)C1CCCC1	2.5	0.72	-0.8	-3.2	-3	i	3
29	CCOC(=S)SCC(=O)Nc1ncc(C)s1	-0.7	0.67	2.9	5.1	99*	i	-4
30	CN(C(=O)c1cccc(C#N)c1)c1nnc(-c2ccccn2)s1	4.1	0.66	-6.8	2.8	-4	nt	-14
31	Cc1cc(C)c2[nH]c(=O)c(CN(Cc3cccs3)C(=S)NCC3CCCO3)cc2c1 (centres undefined)	4.4	0.7	-1.5	5.4	-6	nt	12
32	OC(CC(O)c1ccccc1)c1ccccc1 (centres undefined)	7.7	nt	nt	nt	nt	i	3
33	O=C(Cc1ccccc1Cl)NCCCn1ccnc1	0.6	0.71	-29	3.9	-9	nt	4
34	O=C(N/N=C/c1cccc([N+](=O)[O-])c1)c1cc[n+](CCO)cc1	2.4	nt	nt	0.5	-7	i	46*
35	COc1cccc(-c2nc(CS(=O)(=O)CC(=O)Nc3ccccc3C)c(C)o2)c1	4.1	0.68	0.3	1.0	-2	i	6
36	COc1ccccc1-n1c(SCC(=O)N2CCCCC2)nc(O)c(Cc2ccccc2)c1=O	5.8	0.7	2.2	8.0	2	i	-3
37	COc1ccc(C(=O)Nc2cccc(OC(=O)c3ccco3)c2)cc1	4.0	0.7	0.2	-2.9	-1	i	8
38	CN(C)S(=O)(=O)n1cc(/C=C(\NC(=O)c2ccccc2F)C(=O)N2CCOCC2)c2ccccc21	4.2	0.67	-10	0.7	-4	i	-4
39	C[C@H](CO)N1C[C@H](C)[C@@H](CN(C)S(=O)(=O)c2cn(C)cn2)Oc2ccc(NC(=O)Nc3ccccc3)cc2C1=O	3.1	nt	3.3	8.5	0	i	1
40	O=[N+]([O-])c1ccccc1S(=O)(=O)N1CCc2ccccc2C1	-3.0	0.7	0.1	-0.4	nt	i	-2
41	COC(=O)c1ccc(Oc2nc(C(N)=O)cc(-c3ccccc3)n2)cc1	7.5	0.74	2.8	-9.2	-5	nt	14
42	COc1cc(OC)cc(C(=O)NCC(=O)OC(C)C(=O)NC(C)C2CC3CCC2C3)c1 (centres undefined)	0.0	0.67	2.7	-4.7	-1	i	2
43	O=C(Oc1cccc2cccnc12)c1cccc([N+](=O)[O-])c1	-5.0	0.62	3.5	5.5	-7	nt	4
44	COc1ccc(CNC(=O)c2onc(C)c2Cl)cc1	0.6	0.7	3.9	5.3	0	i	-1
45	CCOC(=O)C1=CN(Cc2cccc(F)c2)S(=O)(=O)N(C)C1c1ccccc1 (centres undefined)	-3.8	0.71	-1.8	nt	nt	i	-16
46	CCOc1cc(/C=N/NC(=O)c2cccnc2)ccc1OCc1ccc(C(=O)OC)o1	1.0	nt	nt	-3.7	-4	i	19
47	Cc1cccc(-c2ccc(C=Nc3c(C)n(C)n(-c4ccccc4)c3=O)o2)c1	2.3	0.75	6.7	1.6	73	nt	-3
48	COc1ccc(C2CC(c3cccs3)=NN2c2nc(C)c(C(C)=O)s2)cc1OC (centres undefined)	6.7	0.69	-127	nt	nt	i	12
49	COc1ccc(N2CCN(C(=O)c3ccc(-c4nc5ccccc5s4)o3)CC2)cc1	-1.0	0.72	-4.4	nt	2	i	-2
50	O=C(CN(Cc1ccccc1Cl)C(=O)c1ccc(CN2CCOCC2)o1)NCC1CCCO1 (centres undefined)	1.0	0.67	-1.4	0.5	-2	nt	4

Some of the entries above in a different format.
11	CCOc1ccccc1N1CN(C2CCCCC2)CNC1=S
- HNF4A DNA FP: 1.9
- Ecoli growth: 0.62
- UCH37 inh: 2.5
- LANA-H2A inh: 5.7
- ALR H2O2 inh: nt
- FGF22 binding: i
- Beta2AR agonist: 2

12	COc1cc(/C=C/c2nnc3c4ccccc4ncn23)cc(OC)c1OC
- HNF4A DNA FP: -0.9
- Ecoli growth: 0.71
- UCH37 inh: -170
- LANA-H2A inh: 2.4
- ALR H2O2 inh: -8
- FGF22 binding: i
- Beta2AR agonist: 11

By substructure, the compounds so far with bromine.
No.	SMILES	HNF4A DNA FP	Ecoli growth	UCH37 inh	LANA-H2A inh	ALR H2O2 inh	FGF22 binding	Beta2AR agonist
13	O=C(NCC1CCCO1)c1cccc(NC(=O)c2ccc(Br)cc2)c1 (centres undefined)	0.3	0.66	2.0	0.9	-3	i	-2
15	N#C/C(=C/c1ccc(OCc2ccc(C(=O)O)cc2)c(Br)c1)c1cccc(F)c1	-14	0.68	-9.8	-6.4	61	nt	4

Later entries:
No.	SMILES	HNF4A DNA FP	Ecoli growth	UCH37 inh	LANA-H2A inh	ALR H2O2 inh	FGF22 binding	Beta2AR agonist
51	O=C(N/N=C/c1cc([N+](=O)[O-])ccc1O)c1c[nH]c2ccccc12	1.4	nt	nt	1.7	-23	i	2
52	O=S(=O)(c1ccc(Br)s1)N1CCc2ccccc2C1	-0.9	0.65	5.8	-5.1	-3	nt	6
53	Cc1cc(CSc2ccccc2)ccc1NC(=O)c1ccc(CN2CCOCC2)cc1	-0.8	0.72	5.6	0.0	1	nt	3
54	CC1CN(C(=O)c2scc3c2OCCO3)CC(C)O1 (centres undefined)	-1.8	0.74	3.8	-4.0	4	nt	1
55	CCNS(=O)(=O)c1ccc(NC(=O)c2cc(C(F)(F)F)nn2C)cc1	2.5	0.69	1.0	2.7	1	nt	4
56	COc1ccccc1C(C)NC(=O)c1ccc(NC(=O)CC2SC(N3CCCC3)=NC2=O)cc1 (centres undefined)	-0.1	0.72	2.8	nt	nt	i	7
57	Cc1ccc(C)c(S(=O)(=O)NCC(=O)Nc2sc3c(c2C(N)=O)CCC(C)C3)c1 (centres undefined)	0.7	0.77	-23	3.3	-17	nt	4
58	CCOC(=O)C1CCCN(c2nc3ccccc3nc2C(C#N)C(=O)NCc2ccccc2)C1 (centres undefined)	-1.1	0.7	-5.1	-2.3	1	nt	1
59	Cc1ccc(C(=O)C(C)OC(=O)C2CCN(c3ccc(C(F)(F)F)cn3)CC2)cc1 (centres undefined)	-1.3	0.68	0.2	nt	nt	i	2
60	CSCc1cc(N(C)C)nc(SCc2ccc(Cl)cc2Cl)n1	-1.9	0.68	-0.6	-2.2	-30	nt	-10
61	Nc1cc(=O)[nH]c(=O)n1CCCc1ccccc1	2.7	nt	nt	-3.7	nt	i	-4
62	Cn1c(=O)[nH]c(=O)c2c1nc(N1CCNCC1)n2Cc1ccccc1	2.0	0.65	2.4	-0.7	-3	i	0
63	Cc1c(OCC(=O)NCC2CCC(C(=O)NCCCO)CC2)ccc2c(-c3ccccc3)cc(=O)oc12 (centres undefined)	0.6	0.69	-4.2	-3.2	-2	i	-5
64	CC(C)NC(=O)C1(c2ccccc2)CCOCC1	1.2	0.73	-0.1	5.9	-14	nt	6
65	COc1ccc(-c2noc(CNC(=O)CCN3C(=O)[C@H]4CC=CC[C@H]4C3=O)n2)cc1	-0.4	0.64	2.2	-2.5	-5	i	6
66	O=C(CCOc1ccccc1)NCC(c1ccco1)N1CCCCC1 (centres undefined)	51*	0.74	-4.4	7.9*	45	nt	-2
67	CN1CCC(=O)N([C@H](CSc2ccccc2)c2ccccc2)CC1	3.6	nt	2.4	0.3	13	i	7
68	COc1ccc(Cl)cc1NC(=O)COC(=O)c1ccc(C)o1	-0.7	0.7	-2.5	1.0	0	i	0
69	COc1ccccc1N1CCN(C(=O)c2cccs2)CC1	-6.3	0.68	0.6	-1.9	54	i	2
